Mtb H37Rv = M. tuberculosis H37Rv growth inhibitors, H37Rv strain (AID 1626). hit rate 0.95% among 220,000. M. tuberculosis H37Rv growth inhibition; higher % means a stronger effect. inhibition, % at 10 µM; hits with a dose series show IC50 in µM;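 active means confirmed in a dose series; inconclusive means inhibition above 80% but not taken into the dose series; inactive means below 80% or under 30% at every dose of the series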;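 further: bacteria incubated seven days before Alamar blue readout; 0% = bacteria only wells and 100% = bacteria with antibiotic wells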
Arbovirus inh = arbovirus infection inhibition. hit rate 0.37% among 200,000. AID 1251. arbovirus infection cell-based antiviral screen. inhibition, % at 10 µM;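 active means inhibition from about 30%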;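 further: bluetongue infection of BSR cells; cell survival read as ATP light after 72 h; 0% = infected wells without compound and 100% = uninfected wells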
Mtb bLac sens = beta-lactam sensitization of Mtb H37Rv; M. tuberculosis H37Rv growth with meropenem, percent inhibition; hits of this screen are not shown here; inhibition, % at 25 µM; hit rate 0.27% among 330,000; AID 434955;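 active means about 74% or more and at least 40 points above the plate without the antibiotic, then above 30% in a dose series; inconclusive means first-round hits that could not be retested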;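 further: growth measured after seven days incubation then overnight dye step; 0% = bacteria only wells and 100% = bacteria with antibiotic; twin plates without the antibiotic show which effects depend on it; some results filed as inactive read as strong as hits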
RecA intein inh = blocks M. tuberculosis RecA intein splicing. P9WHJ3. cell-free RecA intein splicing, fluorescence. inhibition, %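 (about 9 µM by stock and volumes)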. hit rate 0.75% among 290,000. AID 2221; in the data active means inhibition above about 30%; inconclusive means no clear call, values can overlap the other calls;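 further: 0% = vehicle wells and 100% = reference inhibitor control wells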
Target sequence (P9WHJ3 whole entry, looked up): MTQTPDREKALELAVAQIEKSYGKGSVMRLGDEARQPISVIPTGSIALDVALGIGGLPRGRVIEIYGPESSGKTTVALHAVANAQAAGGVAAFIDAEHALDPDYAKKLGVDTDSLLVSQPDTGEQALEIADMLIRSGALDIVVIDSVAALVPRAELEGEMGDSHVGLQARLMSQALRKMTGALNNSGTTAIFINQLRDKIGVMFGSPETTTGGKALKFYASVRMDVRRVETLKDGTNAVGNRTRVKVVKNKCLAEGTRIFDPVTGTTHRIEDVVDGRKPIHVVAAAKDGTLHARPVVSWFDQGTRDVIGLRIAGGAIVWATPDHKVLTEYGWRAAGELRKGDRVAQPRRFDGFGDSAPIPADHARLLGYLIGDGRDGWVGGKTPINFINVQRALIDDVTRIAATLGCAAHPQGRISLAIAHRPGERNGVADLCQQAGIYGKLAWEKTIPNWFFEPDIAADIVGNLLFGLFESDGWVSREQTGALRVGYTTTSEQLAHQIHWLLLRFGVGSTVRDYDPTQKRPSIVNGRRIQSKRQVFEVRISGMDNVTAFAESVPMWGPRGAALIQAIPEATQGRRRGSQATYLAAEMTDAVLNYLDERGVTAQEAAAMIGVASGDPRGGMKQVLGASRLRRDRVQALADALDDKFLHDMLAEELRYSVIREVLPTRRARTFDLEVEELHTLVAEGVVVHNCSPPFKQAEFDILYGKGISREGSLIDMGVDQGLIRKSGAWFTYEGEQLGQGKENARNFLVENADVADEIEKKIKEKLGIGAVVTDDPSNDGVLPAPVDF
YopH inh = blocks Yersinia enterocolitica YopH tyrosine phosphatase. fluorescence Ex485/Em525. inhibition, %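 (about 10 µM by stock and volumes)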. hit rate 0.16% among 140,000. AID 898;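 active means inhibition of 50% or more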;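 further: controls were vehicle for no effect and minimum signal wells for full effect; inactives centre near -20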
Arbovirus inh repeat = further read-out of Arbovirus inh, marked with its call; inhibition, %; measured here: 10K subset replicate screen; many hits read low in the repeat;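 first of two repeat runs on a subset; 0% = infected and 100% = uninfected wells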
Numbers without * were called inactive; ? = inconclusive; · = no result given. Only part of the results is shown (hit frequency here may not be typical).

A first look:
SMILES	Mtb H37Rv	Arbovirus inh	Mtb bLac sens	RecA intein inh	YopH inh	others
Cn1c(CN2CCCCC2)nc2cc(NS(=O)(=O)c3ccc(F)cc3)ccc21	-4%	-6	-4	0.1	·
Cc1cccc(NC(=O)c2sc3nc4c(c(-c5cccs5)c3c2N)CN(C)CC4)c1	6%	-18	50	-9.2	-32
O=c1nc2cccc3c2=c(/c1=C(\O)c1ccccc1)c1ccccc1c3=O	-3%	-11	5	-2.8	·
Cc1ccccc1OCCn1c(=S)[nH]c2ccccc21	·	·	4	2.6	·
CCOC(=O)C1(CCOc2ccccc2)CCN(Cc2ccc(OCC)c(CO)c2)CC1	·	·	-6	1.6	·
CCOc1ccc(NCc2nnc(SCc3ccccc3Cl)n2-c2ccccc2)cc1	?	-6	97	11	-3

This part in full, from the start:
SMILES	Mtb H37Rv	Arbovirus inh	Mtb bLac sens	RecA intein inh	YopH inh	others
Cn1c(CN2CCCCC2)nc2cc(NS(=O)(=O)c3ccc(F)cc3)ccc21	-4%	-6	-4	0.1	·
Cc1cccc(NC(=O)c2sc3nc4c(c(-c5cccs5)c3c2N)CN(C)CC4)c1	6%	-18	50	-9.2	-32
O=c1nc2cccc3c2=c(/c1=C(\O)c1ccccc1)c1ccccc1c3=O	-3%	-11	5	-2.8	·
Cc1ccccc1OCCn1c(=S)[nH]c2ccccc21	·	·	4	2.6	·
CCOC(=O)C1(CCOc2ccccc2)CCN(Cc2ccc(OCC)c(CO)c2)CC1	·	·	-6	1.6	·
CCOc1ccc(NCc2nnc(SCc3ccccc3Cl)n2-c2ccccc2)cc1	?	-6	97	11	-3
CCCCn1c(N)c(N(CC(C)C)C(=O)c2oc3ccc(OC)cc3c2C)c(=O)[nH]c1=O	·	·	-15	0.8	·
C/C(=N\NC(=O)c1c(C)nc2ccccn12)c1ccccc1F	·	·	-4	-2.7	·
CCOC(=O)Cn1ncn(-c2ccc(OC(F)(F)F)cc2)c1=O	-3%	-1	11	-2.3	·
CCCN(CC(=O)Nc1ccccc1C)C(=O)CC(NC(=O)c1ccccc1)c1ccccc1 (centres undefined)	·	·	-13	0.8	·
CCc1nc(N)c(C#N)c(-c2ccc(O)c(OC)c2)c1C	1%	-6	5	3.7	-26
Cc1nc2c(c(=O)n1CCC1=CCCCC1)c1nc3ccccc3nc1n2/N=C/c1ccco1	·	-28	92	-1.6	-45
C=CCn1c(SC(C)C(=O)NC2(C#N)CCCCC2)nnc1-c1ccc(OC)cc1 (centres undefined)	-10%	1	2	1.1	19	Arbovirus inh repeat=2
COCCNC(=O)c1ccc2c(=O)n(Cc3ccco3)c(SCC(=O)NC3CCCCC3)nc2c1	-8%	-1	5	-0.4	-46
Cc1ccc(C(=O)/C=C/c2ccc(-c3ccccc3[N+](=O)[O-])o2)cc1	-2%	13	4	11	-35
CCOC(=O)CSc1nnc2c3ccccc3n(CC)c2n1	·	·	75	-1.1	·
Cc1ccc(S(=O)(=O)N(C)Cc2ccc(C(=O)N/N=C3\CC(=O)CC(C)(C)C3)cc2)cc1	-6%	-2	9	0.8	-22
Cc1ccc(S(=O)(=O)N(C)c2ccc(C(=O)Nc3cccnc3)cc2)cc1	·	·	-5	0.2	·
NS(=O)(=O)c1ccc(NC(=O)CN2CCN(S(=O)(=O)/C=C/c3ccccc3)CC2)cc1	-1%	·	-3	1.2	·
COc1ccc(CCNC2CC(C)N(C)CC2C)cc1OC (centres undefined)	3%	-9	-5	-6.5	-9
CC1CCCN(c2ccc(C(=O)NCC3CCCO3)cn2)C1 (centres undefined)	-3%	3	8	-2.9	-13
CCN1C(=Nc2ccc(Cl)cc2)SC/C1=C\C(=O)OC	6%	0	10	1.2	-13
O=C(CSc1ccc2nnc(-c3ccc(F)cc3)n2n1)NCc1ccco1	-3%	4	-1	1.0	-11
O=C(Cn1ccc2ccccc2c1=O)NCCC(=O)Nc1cccnc1	-10%	8	6	-2.8	-20
COc1ccccc1Cn1c(=S)[nH]c2cc(C(=O)NCCN3CCOCC3)ccc2c1=O	-1%	4	-5	0.2	-32
Cc1cccc(C(=O)N2CCN(c3ccccn3)CC2)c1	-7%	-2	1	-0.2	-28
COC(=O)/N=C/c1c(NCc2ccccc2)nc2c(C)cccn2c1=O	4%	2	0	-3.6	·
Cc1ccc(C)n1-c1ccsc1C(=O)CC#N	-4%	3	11	·	·
Cc1ccc(-n2c(O)c(C=Nc3ccccc3-c3n[nH]c(=S)[nH]c3=O)c3ccccc3c2=O)c(C)c1	-1%	21	13	9.0	·
CC(NS(=O)(=O)c1ccc(F)cc1)C(c1cccs1)N1CCN(C)CC1 (centres undefined)	-13%	-2	-5	4.2	3
CCc1ccc(OCCSc2nc3ccccc3n2CCC(=O)O)cc1	·	·	-1	-0.6	·
Cc1ccccc1OCC1CNC(=O)O1 (centres undefined)	2%	-3	-1	-1.6	·
CC1CC(C)CN(c2ncnc3c2cnn3C)C1 (centres undefined)	0%	-8	-9	1.0	·
CCn1c(SCC(=O)NC2=NCCS2)nnc1C(C)NC(=O)c1ccccc1F (centres undefined)	·	·	-3	-1.0	·
COc1ccc(C2OC(=O)CC2C(=O)N2CCN(c3cc(Cl)ccc3C)CC2)cc1OC (centres undefined)	1%	-2	-3	3.2	·	Arbovirus inh repeat=-2
O=C(COc1cccc2cccnc12)N/N=C/c1ccccc1O	-4%	·	-2	0.5	·
COc1ccc(OC)c(NC(=O)Nc2cccnc2)c1	·	·	-2	-1.3	·
Cc1ccc(CC2CC(=O)N(CCc3ccccc3)C2=O)cc1 (centres undefined)	-6%	1	5	2.6	·
Cn1c(=O)c2c(nc(OC/C=C/c3ccccc3)n2C)n(C)c1=O	3%	·	6	0.4	-23
CC(C)(C)CC(=O)N1CCC(c2nc3c(nnn3Cc3c(F)cccc3Cl)c(=O)[nH]2)CC1	11%	-13	-4	-2.6	-44
O=S1(=O)NC2CCCCCN2c2ccc(F)cc21 (centres undefined)	-9%	0	-6	-0.3	-39
Cc1cccc2cc(C#N)c(NCc3ccccc3)nc12	6%	5	-3	-10	·
CC(OC(=O)c1oc2ccccc2c1COc1ccccc1)C(=O)NC(N)=O (centres undefined)	3%	4	-6	5.0	·
C=CCc1ccccc1OCC(O)CN(CC)CC (centres undefined)	-11%	-3	5	0.3	-12
CCSC1=N/C(=C\c2ccccc2)C(=O)N1c1ccc(OC)cc1	0%	-9	2	-11	·
CN1C(=O)NC(c2cccc([N+](=O)[O-])c2)C2=C1CCCC2=O (centres undefined)	·	·	-1	-2.1	·
COc1cc(OC)cc(C(=O)NCCNC(=O)c2ccccc2)c1	-11%	-5	-4	-4.0	-9
Cc1cccc(C)c1N(CC(=O)N1CCN(c2ccccc2F)CC1)S(C)(=O)=O	-1%	5	7	-2.1	·
O=C(NCc1ccc(Cl)cc1)C1CCC(CNc2c(N3CCCCC3)c(=O)c2=O)CC1 (centres undefined)	6%	-5	-4	2.2	-24
COCCNS(=O)(=O)c1cc(-c2nn(C)c(=O)c3ccccc23)ccc1C	-1%	-11	-6	-1.3	-53
CCOC(=O)C1CCN(c2nnc(N3CCCC3=O)s2)CC1	-4%	2	-8	-3.7	-28
CC(=O)Cc1nsc(NC(=O)c2cc(-c3cccc(C(F)(F)F)c3)oc2C)n1	0%	-4	2	0.3	21
Cc1ccc(NC(=O)c2ccc(-c3nn(C)c(=O)c4ccccc34)cc2)c(C)c1	4%	4	55	2.8	-10
CC(C)(C)OC(=O)NCC12C=CC(O1)C1C(=O)N(Cc3ccccc3)C(=O)C12 (centres undefined)	-7%	1	-4	-0.5	-21
c1ccc(-c2ccc3c(c2)c2c4n3CCN=C4CCC2)cc1	11µM*	-35	86	-4.9	22
O=C1CCC(=O)N1CC(=O)N1CCCc2ccccc21	·	·	-2	-2.2	·
Cc1ccc(-c2nc3ccccc3c(=O)n2-c2ncccc2C)cc1	0%	1	11	3.9	-24
O=c1[nH]c(CN2CCN(CCO)CC2)nc2ccccc12	5%	10	-8	-1.5	5
O=C(c1ccccc1)n1ccc(-c2cccs2)n1	6%	·	0	4.9	·
CCNC(=O)C1CCCN1S(=O)(=O)c1ccc(OC)cc1 (centres undefined)	-7%	0	-2	1.2	-12

Retrieved by compound from above:
SMILES	Mtb H37Rv	Arbovirus inh	Mtb bLac sens	RecA intein inh	YopH inh	others
CC(C)(C)OC(=O)NCC12C=CC(O1)C1C(=O)N(Cc3ccccc3)C(=O)C12 (centres undefined)	-7%	1	-4	-0.5	-21
CC(=O)Cc1nsc(NC(=O)c2cc(-c3cccc(C(F)(F)F)c3)oc2C)n1	0%	-4	2	0.3	21

Next compounds follow:
SMILES	Mtb H37Rv	Arbovirus inh	Mtb bLac sens	RecA intein inh	YopH inh	others
O=C(NCc1ccc(F)cc1)C1CCCN(c2nc3ccsc3c(=O)s2)C1 (centres undefined)	6%	-3	-1	-6.4	·
CCN(CC)C(=O)Oc1ccc2ccccc2c1Br	5%	10	6	9.4	·
C=CCn1c(=N)n(CC(=O)c2ccc(OC)cc2)c2ccccc21	-2%	·	-8	-1.1	·
CSCC(=O)N1CCCC(N2CCN(c3cccc(C(F)(F)F)c3)CC2)C1 (centres undefined)	·	·	3	-0.7	·
CCCOc1ccc(-c2nc(-c3ccc(N)cc3)cs2)cc1	2%	·	3	2.9	·
Cc1scc(C(=O)O)c1-c1c(C(=O)O)csc1C	-1%	2	4	1.0	-30
COc1ccccc1NC(=O)NC(N)=O	-5%	4	0	-0.9	10
CN(C1CCCCC1)S(=O)(=O)c1ccc2c(c1)c(=O)c(C(=O)N1CCc3ccccc3C1)cn2C	1%	4	2	6.3	-9
C=CCn1c(=O)c2ccccc2n2c(SCC(=O)Nc3sc(C)c(CC)c3C(=O)OCC)nnc12	8%	5	-5	0.9	-41
CCOC(=O)c1c(NC(=O)COC(=O)c2ccccn2)sc2c1CCC2	6%	0	4	-1.0	-43
CCOC(=O)c1oc2nc(C(C)C)c3c(c2c1N)CC(C)(C)OC3	-7%	-8	·	·	-44
CSc1nc2cc(F)c(F)cc2n1C	-4%	10	-15	3.5	13
Cc1c(OCC(=O)NCCN2CCOCC2)ccc2c(-c3ccccc3)cc(=O)oc12	·	·	4	0.0	·
Cn1c(SCc2ccccc2)nnc1-c1cnccn1	2%	0	1	-2.2	3
CCC(C)(C)c1ccc(OCC(=O)N(C)C)c(C(C)(C)CC)c1	5%	-28	-13	3.8	·
N#Cc1c(N)oc(-c2ccc3c(c2)OCO3)c1-c1ccc2c(c1)OCO2	11%	-8	-4	3.1	9
CC(C)(C)NC(=O)Cn1c(SCC(=O)Nc2nccs2)nc2ccccc21	-3%	-4	-1	0.5	-29
CCCc1nnc(NC(=O)c2ccncc2)s1	5%	-2	3	0.1	-46	Arbovirus inh repeat=-1
O=C(Nc1nc(-c2ccccn2)cs1)c1cccc(-n2cnnn2)c1	?	·	84	-5.4	·
COc1cc(C(C2C(=O)CC(C)(C)CC2=O)C2C(=O)CC(C)(C)CC2=O)ccc1O	·	·	8	-1.8	·
COC(=O)CCC(=O)NC(=S)Nc1c(C)cccc1C	-2%	-9	0	-0.4	-8
O=C(NCc1ccc(F)cc1)C1CCN(S(=O)(=O)N2CCCC2)CC1	4%	1	-1	0.2	·
CCCNC(=O)COc1ccccc1[N+](=O)[O-]	-4%	0	1	-2.5	-2
CN(C)CCCNS(=O)(=O)c1ccc(N2CCN(Cc3ccc4c(c3)OCO4)CC2)c([N+](=O)[O-])c1	·	·	-8	-3.5	·
CC(=O)OC1CSC2c3ccccc3C(=O)N2Cc2sccc21 (centres undefined)	-2%	-1	-5	2.8	·
C[N+](C)(C)C/C=C1/COCO1	2%	6	-5	-0.4	-5
CC(C)(C)NS(=O)(=O)c1ccc(NC(=O)C(Sc2ccccc2)c2ccccc2)cc1 (centres undefined)	-4%	1	86	·	-41
NC(=O)c1ccsc1NC(=O)COC(=O)c1nc(Cl)ccc1Cl	·	·	-2	1.8	·
c1ccc(C2NCCn3cccc32)cc1 (centres undefined)	-5%	4	-3	·	-46	Arbovirus inh repeat=-1
O=C1NNC(c2ccccc2)=N/C1=C\c1ccc(Cl)cc1	-1%	·	1	8.1	·
COc1ccc(CCNS(=O)(=O)c2ccc3c(c2)n(C)c(=O)c(=O)n3C)cc1OC	-4%	0	·	·	-37
O=S(=O)(c1ccc(F)cc1)N1CCN(CC2CC3C=CC2C3)CC1 (centres undefined)	·	·	-3	2.8	·
COc1c(C)cccc1C(=O)NC(=S)Nc1ccc2c(c1)Cc1ccccc1-2	·	4	·	·	-128
